High-throughput results (PubChem BioAssay)
Cruzain inh Det – blocks cruzain activity in presence of Triton detergent | P25779 | purified cruzain, Z-FR-AMC fluorescence, 0.01% Triton | Potency, µM, for the others: max response, negative = inhibition, hits mostly inhibitors | 200,000 tested, 0.43% active | AID 1478;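 further: plate controls were neutral wells for no effect and buffer without enzyme for full effect; nearly all actives have a fitted effect of over 40% in size; top concentration of the series not given in the record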
Target sequence (P25779 123-467 limits assumed): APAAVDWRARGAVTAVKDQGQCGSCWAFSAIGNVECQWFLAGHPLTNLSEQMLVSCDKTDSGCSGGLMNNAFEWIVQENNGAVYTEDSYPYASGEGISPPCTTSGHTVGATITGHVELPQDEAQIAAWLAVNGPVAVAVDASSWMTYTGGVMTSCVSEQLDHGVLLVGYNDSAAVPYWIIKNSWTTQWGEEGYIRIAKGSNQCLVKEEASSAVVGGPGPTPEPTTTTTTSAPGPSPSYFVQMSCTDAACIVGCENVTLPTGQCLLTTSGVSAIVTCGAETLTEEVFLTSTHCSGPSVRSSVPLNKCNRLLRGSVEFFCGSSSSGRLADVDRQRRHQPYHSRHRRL
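Compounds were screened in titration against cruzain (1.5 nM) with 0.01% Triton X-100 to counter colloidal aggregation. Activity was the AMC fluorescence increase over 60 s after adding 2 uM Z-FR-AMC at pH 5.5.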
StopGo reporter – FMDV 2A StopGo reporter, luciferase signal; AID 1159524; human cells with a luciferase reporter of 2A StopGo recoding; control for the full effect not named in the record; 410,000 tested, 1.2% active; Potency, µM (titrated, usually from 57.9 µM), for the others: top-dose signal change, negative = less light; active = well fitted falling curve with a large enough effect; inconclusive = small, poorly fitted or top-dose-only effect; inactive = no such curve, though single readings can be large or run the other way; tested in HEK293T cells; further: on the % scale 0 is the no-effect control and ±100 the full control effect; nearly all actives have a fitted effect of over 45% in size; luciferase light after 4 h
Lassa entry inh – inhibitors of Lassa virus binding or cell entry. AID 540256. 300,000 tested, 1.2% active. Lassa virus pseudotype entry inhibition, cell reporter; control for the full effect not named in the record. Potency, µM (titrated, usually from 37.9 µM), without a hit: top-dose activity change, negative = inhibition, hits mostly inhibitors; active means well fitted inhibition curve with a large enough effect; inconclusive means small, poorly fitted or top-dose-only effect, or effect the other way; inactive means flat fitted curve, though single readings scatter; tested in HEK293 cells; further: on the % scale 0 is the no-effect control and ±100 the full control effect; nearly all actives have a fitted effect of over 50% in size; luciferase read-out
MARV entry inh – Marburg virus entry inhibition | Marburg virus pseudotyped entry inhibition, cell reporter; control for the full effect not named in the record; about a third of the inactives were read at about 46 µM | Potency, µM (series often up to 37.8 µM), without a hit: at the top dose activity change, negative = inhibition, actives largely listed as inhibitors | 300,000 tested, 1.8% active | AID 540276; active = well fitted inhibition curve with a large enough effect; inconclusive = small, poorly fitted or top-dose-only effect, or effect the other way; inactive = flat fitted curve, though single readings scatter; tested in HEK293 cells; about a fifth of its hits are not listed in these tables; further: on the % scale 0 is the no-effect control and ±100 the full control effect; luciferase read-out
NS1 inh – influenza NS1 inhibition; Potency, µM (titrated, usually from 46.1 µM), inactives show at the top dose activity, positive = more growth; 270,000 tested, 0.4% active; AID 2326; S. cerevisiae slowed by influenza A NS1, growth recovery by OD600; active means well fitted rising curve with a large enough effect; inconclusive means small, poorly fitted or top-dose-only effect; inactive means no such curve, though single readings can be large or run the other way; further: nearly all actives have a fitted effect of over 50% in size
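Growth recovery, yeast-based: influenza A NS1 expressed in S. cerevisiae causes slow growth, and suppressors are detected by OD600. The parent strain without NS1 is used as positive control.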
SARS PLpro yeast – blocks SARS-CoV papain-like protease in a yeast assay | Potency, µM (highest dose often 32.9 µM), without a hit: top-dose activity, positive = growth rescue | 330,000 tested, 0.19% active | S. cerevisiae expressing SARS-CoV PLpro, growth rescue; control for the full effect not named in the record; active means well fitted rising curve with a large enough effect; inconclusive means small, poorly fitted or top-dose-only effect; inactive means no such curve, though single readings can be large or run the other way; further: 0% is about no effect; nearly all actives have a fitted effect of over 55% in size; growth read by luminescence after 48 h
RE007 growth inh – less growth of the S. pombe RE007 Vpr strain; AID 651644; Potency, µM (series often up to 92.2 µM), inactives show at the top dose activity change, negative = less growth; 360,000 tested, 0.21% active; S. pombe RE007 Vpr strain, BacTiter-Glo ATP luminescence, 24 h; control for the full effect not named in the record; active = well fitted falling curve with a large enough effect; inconclusive = small, poorly fitted or top-dose-only effect; inactive = no such curve, though single readings can be large or run the other way;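 further: on the % scale 0 is the no-effect control and ±100 the full control effect; nearly all actives have a fitted effect of over 50% in size; the assay follows cell death caused by Vpr and the record does not say whether a fall means rescue or toxicity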
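Fission yeast strain RE007, carrying one chromosomally integrated HIV-1 vpr copy, was seeded at OD 0.01 in PMG+AL medium with 23 nL pinned compound. After 24 h at 30 °C and 99% humidity, viability was read by BacTiter-Glo luminescence.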
Cruzain noTriton – inhibitors of Trypanosoma cruzi cruzain without detergent; purified cruzain, Z-FR-AMC fluorescence, no detergent; P25779; 200,000 tested, 2.3% active; AID 1476; Potency, µM, for the others: max response, negative = inhibition, most hits filed as inhibitors;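 further: plate controls were enzyme without inhibitor for no effect and buffer without enzyme for full effect; nearly all actives have a fitted effect of over 40% in size; top concentration of the series not given in the record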
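Detergent-free condition (0.00005% Triton X-100) in acetate buffer pH 5.5 with DTT. 1.5 nM enzyme and compound were pre-mixed 15 min, then 2 uM Z-FR-AMC substrate added; reaction progress from fluorescence change between first and third reads (60 s).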
Numbers without * were called inactive; ? = inconclusive; / = not tested or not shown; & = joins results of further samples; [ ] = remark or other dose. Unless noted, the call rests on the fitted dose curve; in most records, active means well fitted curve in the direction sought with a large enough effect; inconclusive means small, poorly fitted or top-dose-only effect, or another doubt; inactive means no such curve, though single readings can be large; an effect the other way counts as inactive or inconclusive. Potency means the concentration at half of the fitted maximal effect.

Below each compound – Cruzain inh Det, StopGo reporter, Lassa entry inh, MARV entry inh, NS1 inh, SARS PLpro yeast, RE007 growth inh, Cruzain noTriton
> O=C(c1cc2ccccc2oc1=O)N(Cc1cccs1)Cc1cccs1
 : -5.0%, 11%, -23%, ?, 2%, -29%, -8%, 2%
> COc1ccc(C(=O)/C=C/c2cccs2)c(OC(=O)c2cccc([N+](=O)[O-])c2)c1
 : 2.5%, -6%, -8%, -1%, 1%, -4%, 16%, ?
> CC(NC(=O)C1CSC2(C)CCC(=O)N12)c1ccccc1Cl (stereo not drawn)
 : /, -14%, -10%, ?, /, 2%, 11%, /
> COc1cccc(CNC(=O)N[C@@H](C)C(=O)O)c1
 : /, -14%, /, /, -1%, 0%, 2%, /
> C=C(C)CN=C1SC(C(=O)Nc2sc3c(c2C(=O)OC)CCC3)C(N)=C1C(N)=O (stereo not drawn)
 : -5.0%, -8%, -4%, -16%, 20%, 0%, -1%, -18%
> O=C(c1ccc2c(c1)OCO2)C1CCCN(C2CCN(CCc3ccccc3)CC2)C1 (stereo not drawn)
 : /, -8%, ?, 7.1µM*, 0%, 1%, -13%, /
> CCCCCOc1ccccc1C(=O)NCCC(=O)O
 : 4.4%, 49%[activator], -6%, 5%, 7%, 1%, 12%, 11%
> CCOC(=O)c1ccc(NC(=O)CSc2nncn2-c2cccnc2)cc1
 : /, -1%, 0%, -5%[46.1 µM], -12%, -9%, 25%, /
> C=CCNC(=O)C1CC(=O)N(c2ccc(OCC(=O)Nc3ccc(OC)cc3)cc2)C1 (stereo not drawn)
 : -0.2%, -13%, 5%, 8%&-17%, -6%, 2%, 12%[3.69 µM], 5%
> CN(C)C(=N)c1n[nH]nc1SCc1ccccc1
 : /, -9%, 6%, -4%[46.1 µM], 1%, -1%, -1%, /
> COc1ccccc1NC(=O)c1cc2ccc3cccnc3c2[nH]1
 : -6.1%, 7%, -3%[46.1 µM], /, /, /, /, -2%
> COc1ccc(/C=C2\SC(=NCc3ccccc3)N(Cc3ccccc3)C2=O)cc1OC
 : -6.9%, 0%, -2%, 1%, -2%, 1%, -3%, 5%
> O=C(c1ccc(Cl)cc1)C1CCN(C(=O)N2CCOCC2)CC1
 : -11%, -20%, -19%[14.3 µM], -17%, -1%, 0%, 12%, -2%
> Nc1ccc2c(c1)C(=O)c1ccccc1C2=O
 : 1.0%, 84%[activator], -1%[46.1 µM], 16%&16%&16%, /, -8%, -14%, -19%
> COc1cc(OC)c(C(=O)CCCN2CCCC2)c(OC)c1
 : 1.6%&-4.4%, -15%, 9%, -3%&-3%&-3%&-3%, 0%, -1%, -6%[18.4 µM], 6%&-4%
> CC(C)C1(C(C)C)OC(=O)c2ccccc21
 : -0.5%, -5%, 6%, ?, 14%, 4%, 5%, 1%
> CCCc1cc(=O)[nH]c(SCC(=O)Nc2cc(S(=O)(=O)N3CCOCC3)ccc2Cl)n1
 : /, 20%, -8%[46.1 µM], -10%[46.1 µM], /, 3%, -4%, /
> O=C(Oc1ccc([N+](=O)[O-])cc1)N1CCC(N2CCCCC2)CC1
 : -3.1%&2.6%, -12%, 9%, 0%, -12%, 3%, 5%, -5%&-2%
> O=C(O)C1=C(C(=O)Nc2ccc(F)c(Cl)c2)CCCC1
 : -0.2%, 1%, -3%, -9%, -7%, -2%, -19%, -5%
> c1csc(-c2cnc3n2CCCC3)c1
 : 3.0%, -5%, 5%, 4%[46.1 µM], -8%, 3%, -2%, 9%

Continuation:
Below each compound – Cruzain inh Det, StopGo reporter, Lassa entry inh, MARV entry inh, NS1 inh, SARS PLpro yeast, RE007 growth inh, Cruzain noTriton
> CC1CC(N(C(=O)c2ccccc2Cl)c2ccccc2)c2ccccc2N1 (stereo not drawn)
 : -1.5%, ?, ?, ?, 8%, -8%, 18%, -1%
> Cc1cccc(NS(=O)(=O)Cc2ccccc2)c1C
 : /, 14%, 16%, 7%, -9%, 2%, -17%, /
> Cc1nc(NC(=O)c2c(-c3ccccc3)c(-c3ccccc3)nn(C)c2=O)sc1C
 : -6.1%, 39%[activator], 12%[46.1 µM], -17%[46.1 µM], /, /, /, ?
> O=c1[nH]c(=O)n(-c2ccccc2Cl)c(O)c1C=NCCN1CCCCC1
 : -3.2%, -4%, -3%, 7%, 15%, 3%, 2%, -3%
> NC(=O)c1nc(Nc2ccccc2)sc1NC(=O)c1ccccc1Br
 : -1.8%, -24%, -5%[46.1 µM], /, /, /, /, ?
> O=C(CCCSc1nc2ccccc2[nH]1)NC(c1ccccc1)c1ccccc1
 : -7.9%, 0%, /, /, -1%, 7%, 7%, 1%
> COc1ccc(CN2CCN(C(C)C(=O)N3CCc4ccccc43)CC2)cc1OC (stereo not drawn)
 : /, -12%, -3%, ?, 8%, 0%, -6%, /
> c1ccc2c(c1)nc1n2CCS1
 : 0.6%, -5%, 9%, 20%, -3%, -1%, 2%, -18%
> Cc1cc(=O)oc2ccc(OC(=O)c3cccc(S(=O)(=O)N4CCOCC4)c3)cc12
 : 3.0%, 4%, -4%, 4%, -7%, -5%, -11%, ?
> CC(=O)Nc1ccc(NC(=O)CSc2nnc(C)c(=O)[nH]2)cc1
 : /, -13%, -2%, 14%[46.1 µM], /, 0%, -23%, /
> CCOc1ccc(NC(=O)CSc2cc(C)c3ccccc3n2)cc1
 : 2.5%, -18%, -4%[46.1 µM], /, /, /, /, -4%
> O=S(=O)(NC1CCCc2ccccc21)c1cnc[nH]1 (stereo not drawn)
 : 1.8%, 1%, 0%, 11%, 6%, 6%, -6%, 7%
> COc1ccc(OC)c(NS(=O)(=O)c2ccc(NC(=O)C3COc4ccccc4O3)cc2)c1 (stereo not drawn)
 : -2.2%, /, -12%, ?, 25%, -1%, 7%, ?
> Cc1cc(C(=O)CN2C(=O)C(=O)N(Cc3ccccc3)C2=O)c(C)n1Cc1ccccc1
 : /, -7%, -3%, -4%, /, -4%, 9%, /
> O=S(=O)(NCc1nc2cccnc2n1Cc1ccc(F)cc1)c1ccc2c(c1)CCCC2
 : -1.0%, 62%[activator], 15%[46.1 µM], /, /, /, /, -6%
> COCCNC(=O)CC(NS(=O)(=O)c1ccc(C)cc1)c1ccco1 (stereo not drawn)
 : 12%, -4%, 10%, 4%[46.1 µM], ?, 4%, 9%, 2%
> C=C(C)Cn1c(=O)c2c(nc3n2CCCN3CCc2ccccc2)n(C)c1=O
 : /, -16%, /, /, 0%, -14%, -6%, /
> CCC(C)(C)NC(=O)C(c1cccnc1)N(CCOC)C(=O)Cn1nnc2ccccc21 (stereo not drawn)
 : 0.5%, -14%, -10%, 19%, -1%, -3%, 25%, 5%
> CO[C@H]1[C@@H](OC)CC(OC2OC(CO)C(O)C(O)C2O)/C(=C\C#N)[C@@H]1O (stereo partly drawn)
 : 7.8%, -14%, 5%, -7%, ?, 0%, 4%, 13%
> Cc1cc2ccccc2n1CCNC(=O)c1ccc(F)cc1
 : -5.0%, 24%, 1%[46.1 µM], -18%[46.1 µM], /, /, /, -1%

Next results:
Below each compound – Cruzain inh Det, StopGo reporter, Lassa entry inh, MARV entry inh, NS1 inh, SARS PLpro yeast, RE007 growth inh, Cruzain noTriton
> O=C(NC1CC1)c1cc2cc3ccccc3nc2s1
 : /, 24%, -6%[46.1 µM], ?, 5%, 15%, -9%, /
> O=C1CCN(Cc2ccccc2)S(=O)(=O)c2ccccc21
 : /, -25%, /, /, 5%, 0%, -4%, /
> O=C(CNC(=O)Cc1ccccc1)N=Nc1c(O)n(Cc2ccc3c(c2)OCO3)c2ccccc12
 : -5.2%, -15%, /, 0%, 21%, -22%, -3%, ?
> O=S(=O)(c1ccc2c(c1)OCCO2)N1CCC(n2cnc3cc(F)ccc32)CC1
 : 0.0%, ?, -1%, 1%, -10%, -2%, 1%, -6%
> COc1ccc(C2=CC(c3ccc(Cl)cc3)n3cnnc3N2)cc1OC (stereo not drawn)
 : -6.5%, 36%[activator], ?, ?, -64%, -9%, -4%, ?
> CC12CCC(=O)N1C(C(=O)Nc1nc3ccc(S(C)(=O)=O)cc3s1)CS2 (stereo not drawn)
 : /, -14%, /, /, 14%, -6%, -2%, /
> CCOn1c(=O)c(-c2cccc([N+](=O)[O-])c2)[n+]([O-])c2ccccc21
 : -0.5%, 2%, 9%, 22%[46.1 µM], -13%, 23%, -3%, -12%
> Cc1ccccc1Cn1cnc2c(nnn2Cc2ccc(F)cc2)c1=O
 : 6.0%, -15%, 0%, -25%, -10%, 0%, -2%, -6%
> CCn1ncc([N+](=O)[O-])c1C(=O)N1CCc2ccccc2C1
 : /, -7%, 10%, 1%[46.1 µM], 2%, -1%, 13%, /
> O=S(=O)(NC1CC1)c1ccc(S(=O)(=O)N2CCc3ccccc32)cc1
 : 0.2%, ?, -23%, -25%, -20%, 1%, -1%, 1%
> COc1ccc(NC(=O)CN(C)S(=O)(=O)c2ccccc2)cc1OC
 : 1.3%, 2%, ?, 27%, -1%, -1%, -3%, -4%
> Cc1ccc(CC(=O)N(C)CC(=O)N(CC(C)C)c2c(N)n(CC(C)C)c(=O)[nH]c2=O)cc1C
 : /, -16%, 1%, -12%, /, -2%, 6%, /
> O=C(N/C(=C\c1ccc([N+](=O)[O-])cc1)C(=O)N1CCCCC1)c1ccco1
 : /, 36%[activator], -3%[46.1 µM], -15%[46.1 µM], 3%, 2%, -7%, /
> COc1cccc(C(=O)c2c(-c3ccccc3)ncc3cc(OC)c(OC)cc23)c1
 : /, -3%, /, 3%, /, -25%, -12%, /
> CC(C)(C)C(=O)C[n+]1cccc(C(N)=O)c1
 : /, -10%, -3%, -6%, 15%, 2%, 0%, /
> Cc1ccc(S(=O)(=O)N2CCCCC2)cc1NC(=O)COC(=O)CNC(=O)c1cc(Cl)cc([N+](=O)[O-])c1
 : 10µM*, -11%, -2%&5%, 11%&3%, -15%, 11%, 1%, 20µM*

Compounds were not picked by outcome, and some 4.6% of all compounds hit somewhere here.
